TRPML1 blocker – blocks the human TRPML1 channel; 390,000 compounds, 0.02% hits; activity change, negative = inhibition, % (test concentration not listed); AID 624415; TRPML1-inducible cells, Ca2+ dye fluorescence, FDSS; hits give low values; inhibition of EC80 agonist-evoked calcium signal; Q9GZU1; in the data active means activity change below about -50%; inconclusive means about -30% to -50%; inactive means above about -30%;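 note: stimulus is agonist 54-4 at its EC80 concentration; % is set by controls: 0 for no effect and ±100 for the full control effect; compound concentration not given in the record; the text of the record puts the active cut at -80%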
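TRPML1-DL cells, Tet-induced overnight (~16 h, 37 °C) at 1,500 cells/well, were loaded with Ca8 no-wash dye plus quencher for 45-90 min at room temperature. Compounds were pinned during FDSS kinetic reading; agonist 54-4 at EC80 (4 uM final) then added.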
TRPML1 ag – agonists of human TRPML1 channel. Q9GZU1. TRPML1-expressing cells, Ca2+ dye fluorescence, FDSS; host cell line not named in the record; reference of the full effect not given here. activation, % (concentration not given with the values). 410,000 compounds, 0.12% hits; in the data active = activation above about 50%; inconclusive = about 30% to 50%; inactive = below about 30%; note: 0% is about no effect; the text of the record puts the active cut at 80%
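Agonist activity was taken from a 110 s kinetic Ca2+ dye read on the FDSS after pinning compounds onto TRPML1-DL cells. The cells were seeded at 1,500/well with Tet inducer, incubated about 16 h, then dye-loaded at room temperature.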
D2 PAM – positive allosteric modulators of human D2 dopamine receptor; DiscoveRx D2 beta-arrestin cells, luminescence, 90 min; 100% = 57 uM dopamine signal; potentiation, % (test concentration not listed); 360,000 compounds, 0.23% hits; AID 624464; active = potentiation of 50% or more; inconclusive = 30% to 50%; inactive = 30% or less;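 note: compound concentration not given in the record; tested on top of an EC20 dose of dopamine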
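D2 cells co-treated with compound plus 50 nM dopamine (EC20) for 90 min at 37 deg C to detect potentiation. Beta-arrestin recruitment was read as enzyme-fragment luminescence after 1 h at ambient temperature. Full response was set by 57 uM dopamine.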
D2 ag – activates the human D2 dopamine receptor | DiscoveRx PathHunter D2 beta-arrestin, luminescence, 90 min; 100% = 57 uM dopamine signal | activation, % (no concentration beside the values) | 360,000 compounds, 0.084% hits; in the data active = activation above about 40%; inconclusive = about 15% to 40%; inactive = below about 15%; note: compound concentration not given in the record; the text of the record calls up to 30% inactive
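DiscoveRx PathHunter D2 beta-arrestin cells (2,100/well) attached overnight, then compound-stimulated 90 min at 37 C in HBSS/10 mM HEPES/0.1% Tween-20 buffer; beta-galactosidase complementation read by luminescence after 1 h at ambient temperature. Dopamine 57 uM final (EC100) as control.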
Six1-Eya2 inh – inhibitors of human Six1/Eya2 interaction; Q15475+O00167; AlphaScreen GST-Six1/His-Eya2 binding, biochemical; hits give low values; control for the full effect not named in the record; activity change, % (test concentration not listed); 360,000 compounds, 0.56% hits; AID 651725; in the data active = activity change below about -65%; inconclusive = about -30% to -65%; inactive = above about -30%; note: % is set by controls: 0 for no effect and ±100 for the full control effect
Target sequence (O00167 whole entry, looked up): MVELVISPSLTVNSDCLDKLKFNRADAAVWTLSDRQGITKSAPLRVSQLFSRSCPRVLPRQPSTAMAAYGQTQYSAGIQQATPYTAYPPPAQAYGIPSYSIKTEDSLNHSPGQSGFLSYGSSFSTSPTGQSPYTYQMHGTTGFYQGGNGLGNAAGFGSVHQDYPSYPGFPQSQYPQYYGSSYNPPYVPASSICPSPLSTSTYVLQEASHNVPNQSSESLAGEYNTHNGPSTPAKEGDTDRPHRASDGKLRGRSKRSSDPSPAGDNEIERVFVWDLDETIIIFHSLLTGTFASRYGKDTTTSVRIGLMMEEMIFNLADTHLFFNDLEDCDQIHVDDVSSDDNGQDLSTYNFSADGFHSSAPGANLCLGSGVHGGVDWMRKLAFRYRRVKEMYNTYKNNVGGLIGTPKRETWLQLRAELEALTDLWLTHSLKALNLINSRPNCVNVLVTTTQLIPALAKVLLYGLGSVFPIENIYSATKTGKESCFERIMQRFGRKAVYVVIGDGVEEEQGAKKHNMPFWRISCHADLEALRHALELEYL
Target sequence (Q15475 whole entry, looked up): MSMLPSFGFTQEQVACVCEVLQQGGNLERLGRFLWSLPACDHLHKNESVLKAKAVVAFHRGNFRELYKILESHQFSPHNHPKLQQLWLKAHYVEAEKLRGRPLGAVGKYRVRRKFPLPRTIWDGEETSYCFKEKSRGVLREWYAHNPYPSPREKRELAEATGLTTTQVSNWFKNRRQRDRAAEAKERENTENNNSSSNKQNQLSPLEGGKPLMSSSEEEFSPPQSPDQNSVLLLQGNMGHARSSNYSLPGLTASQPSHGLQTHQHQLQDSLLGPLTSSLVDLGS
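AlphaScreen with GST-Six1 and His-Eya2 (5X mix: 250 nM and 500 nM), glutathione donor and nickel acceptor beads; buffer 50 mM Tris pH 8.0, 300 mM NaCl, 1 mM TCEP; 1 h at 37 C in the dark.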
PINK1 expr mod – PINK1 expression modulation. Potency, µM (highest dose often 76.6 µM), inactives show top-dose activation (PINK1 increase), actives largely listed as activators. PINK1 immunofluorescence, high-content cytometry, 24 h. 410,000 compounds, 0.2% hits; active = well fitted activation curve with a large enough effect; inconclusive = small, poorly fitted or top-dose-only effect; inactive = flat fitted curve, though single readings scatter; cell line not stated here;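 note: potency is the fitted concentration of half-maximal effect; % of control where 0% means no effect; nearly all actives have a fitted effect of over 65% in size; a mitochondrial uncoupler was the plate control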
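Stable cell line, 250 cells/well, 12 h attachment; compounds pinned at 5 concentrations, 24 h; CCCP control. Fixed with nuclear dye, primary antibodies 12 h at 10 degrees C, secondary plus cell stain; laser-scanning cytometer read.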
Active calls of the source: *; ? = inconclusive; . = no result given; [ ] = dose if it differs, or a comment.

SMILES	TRPML1 blocker	TRPML1 ag	D2 PAM	D2 ag	Six1-Eya2 inh	PINK1 expr mod
O=C(NCC(c1ccco1)N1CCN(c2ccccc2)CC1)OCc1ccccc1 (configuration not stated)	7	0.2	-10	-1.7	-4	-0.7%
Cc1cc(CN(C)Cc2ccc(OCC(O)CN(C)Cc3ccccc3)cc2)on1 (configuration not stated)	-9	-0.6	-8	2.5	-5	1.2%
CC1=C(c2ccccc2)C(O)(c2ccccc2)C(C)C1=O (configuration not stated)	-7	1.2	-9	-4.9	6	5.6%
O=C(c1cc2cc(Cl)ccc2oc1=O)N1CCCCCCC1	7	-0.5	9	0.9	-1	0.0%
CC1(C)CC(=O)c2cnc(NC3CC3)nc2C1	-3	0.1	5	-2.1	3	-3.9%
O=C(/C=C/c1ccccc1)/C=C/c1ccccc1	-1	-0.2	-14	0.5	4	-2.3%
CN(C)c1nc(OCCOC(=O)COc2ccc(Cl)cc2Cl)nc(N(C)C)n1	4	0.6	-9	-3.7	-4	3.8%[38.3 µM]
CCn1cc([N+](=O)[O-])nc1C	?	0.4	1	0.1	5	0.3%
CC1CCN(c2ccc(C(=O)NCc3ccco3)cc2[N+](=O)[O-])CC1	57	3.7	-14	-1.4	-27	-0.7%
O=C(CCS(=O)(=O)c1ccccc1Cl)NC1CCCCCC1	32	1.9	-1	-1.5	-4	2.0%
O=C(CSc1nnc2ccc(-c3cccnc3)nn12)Nc1ccccc1F	13	0.3	-4	-0.5	-7	1.4%
COc1cc(-c2cnc3c(NC=O)cc(-c4cccc(NC(C)=O)c4)cn23)cc(OC)c1OC	.	-0.8	-3	5.7	-21	14%
COc1cc(C2NC(=O)C(C#N)=C(S)N2c2ccccc2)ccc1OC(C)C (configuration not stated)	12	0.3	-4	-1.9	3	-1.2%
O=C(CCN1C(=O)[C@@H]2Cc3ccccc3CN2C1=O)Nc1cccc(F)c1	21	0.0	-19	-0.3	-4	-1.4%
COc1ccc(/C=C2\SC(=S)N(CCC(=O)NC3C=CS(=O)(=O)C3)C2=O)cc1 (configuration not stated)	9	0.0	-21	-3.7	4	-0.4%
CC1CCCC(NC(=O)COC(=O)c2ccccc2Sc2ccccc2C#N)C1C (configuration not stated)	-9	1.1	-7	-2.9	0	6.0%
Cc1cc(C)c(C#N)c(SCC(=O)Nc2ccc(S(=O)(=O)Nc3ncccn3)cc2)n1	44	-0.2	-16	-5.3	-5	-0.2%
CSc1ncc(Cl)c(C(=O)Nc2c(C(=O)c3ccc(C)c(F)c3)oc3ccccc23)n1	6	-0.8	.	.	.	2.8%
Cc1cccc(N2CCN(C(=O)Cc3ccc(Br)cc3)CC2)c1C	12	1.7	-14	-4.5	9	14%
CCOC(=O)C1=C2NC(=O)c3ccccc3N2C(=O)C1	-17	2.3	-13	-7.5	15	0.2%

Only TRPML1 ag and D2 PAM, for 3 of the compounds above:
| smiles | TRPML1 ag | D2 PAM |
| --- | --- | --- |
| CSc1ncc(Cl)c(C(=O)Nc2c(C(=O)c3ccc(C)c(F)c3)oc3ccccc23)n1 | -0.8 | . |
| Cc1cccc(N2CCN(C(=O)Cc3ccc(Br)cc3)CC2)c1C | 1.7 | -14 |
| CCOC(=O)C1=C2NC(=O)c3ccccc3N2C(=O)C1 | 2.3 | -13 |

Single records, as listed above. Screens in order: TRPML1 blocker	TRPML1 ag	D2 PAM	D2 ag	Six1-Eya2 inh	PINK1 expr mod
CC1CCCC(NC(=O)COC(=O)c2ccccc2Sc2ccccc2C#N)C1C (configuration not stated) as listed: -9	1.1	-7	-2.9	0	6.0%
O=C(CSc1nnc2ccc(-c3cccnc3)nn12)Nc1ccccc1F as listed: 13	0.3	-4	-0.5	-7	1.4%

Carrying on.
SMILES	TRPML1 blocker	TRPML1 ag	D2 PAM	D2 ag	Six1-Eya2 inh	PINK1 expr mod
CS(=O)(=O)N(Cc1ccccc1)c1ccc(C(=O)Nc2cccnc2)cc1	16	0.9	-7	-0.1	-14	.
Cc1ccc(S(=O)(=O)N2CCN(C(=S)NCCc3ccccc3)CC2)cc1	20	2.0	7	-1.0	3	-0.2%
COc1ccc(/C=C/C(=O)Nc2ccc3nc4c(c(Nc5ccccc5OC)c3c2)CCCC4)cc1	-2	0.2	.	.	.	7.9%
COCCN1Cc2cccc(C(=O)Nc3cc(OC)ccc3OC)c2C1=O	4	-0.2	-5	-3.8	-7	-1.5%
N#Cc1sc2nc(N3CCCCC3)c3c(c2c1N)CCCC3	-14	14	5	1.0	-9	9.8%
Cc1ccc(C)c(C(=O)COC(=O)c2cc(Cl)nc3ccccc23)c1	10	0.0	-2	-4.5	12	0.8%
O=C1CC[C@@H](C(=O)N2CSC[C@@H]2C(=O)Nc2cccc(C(F)(F)F)c2)N1	1	-0.5	-11	1.7	1	-1.7%
O=C(COc1ccc2ccc(=O)oc2c1)Nc1ccc(CCO)cc1	-3	-0.2	-1	2.9	-5	-1.3%
C=CCn1c(=O)c2ccccc2n2c(SCc3csc(-c4ccccc4)n3)nnc12	-13	1.2	9	0.1	3	0.5%
O=C1NC2(Nc3ccccc31)C(=O)Nc1ccccc12 (configuration not stated)	-8	0.0	9	-2.3	-29	-0.8%
O=C(CC12CC3CC(CC(C3)C1)C2)NCC(c1ccc(F)cc1)N1CCOCC1 (configuration not stated)	-12	0.6	-4	0.6	-1	2.8%
CCCCNC(=O)c1onc(CSc2nc3ccccc3[nH]2)c1C(=O)NCCCC	-20	3.7	-7	-2.1	-1	0.7%
CCN(CC)S(=O)(=O)c1cccc(NC(=O)CSc2nnc(N)s2)c1	-8	-0.2	1	-21	0	0.1%
Cc1cnc(C(=O)OCC(=O)c2c(N)n(CC(C)C)c(=O)n(C)c2=O)cn1	9	-0.4	8	-6.7	-3	-0.6%
O=C(c1ccco1)n1nc(-c2cccnc2)nc1NCc1ccco1	2	0.0	-41	0.9	14	5.5%
CN(C(=O)C1CCCCC1)C1CCS(=O)(=O)C1 (configuration not stated)	40	0.6	-1	-3.8	7	0.4%
O=C(Nc1cccc2ccccc12)N1CCc2ccccc2C1	-6	-1.1	1	-3.2	4	-2.3%
C/C(CC(=O)Nc1cc(C)ccn1)=N\NC(=O)c1ccncc1	8	0.5	1	4.2	-5	-1.4%
Cc1ccc(NC(=O)CCN2CCc3ccccc3C2)cc1	-12	-0.1	-27	-5.0	-3	0.8%[38.3 µM]
Cc1ccc(S(=O)(=O)NCCCCCC(=O)Nc2ccccc2C)cc1	-19	1.8	-16	-3.0	-5	-1.7%
O=C(CCCc1ccccc1)Nc1ccccc1[N+](=O)[O-]	12	1.5	-8	4.1	-22	0.8%
CC(C)(C)C1CCc2oc3ccc(NS(=O)(=O)c4cc(Cl)ccc4Cl)cc3c2C1 (configuration not stated)	-11	0.8	.	.	.	0.2%
COCCc1ccc(OC2(C)CCN(Cc3cccc(OCOC)c3)C2)cc1 (configuration not stated)	.	-1.0	-36	-7.1	-11	2.2%
Cc1ccccc1NC(=O)CCN1CCCCCC1	0	-0.3	-7	-1.5	4	-1.5%
Cc1cccc(COc2ncnc3nc[nH]c23)c1	5	-0.7	2	3.5	-9	1.0%
COc1ccc(C(=O)Nc2cccc(-c3nc4ncccc4o3)c2C)cc1OC	-1	1.4	-16	1.2	4	2.7%
CC1=C(C(=O)OCC2CCCO2)C(c2ccccc2)C2=C(CCCC2=O)N1 (configuration not stated)	-3	0.3	0	1.0	8	-0.7%
CC(C)Oc1cccc(C(=O)NC(=S)Nc2ccc(Cl)c(C(=O)O)c2)c1	3	0.0	-9	-4.1	4	-0.6%
CCNC(=S)Nc1cccc(NC(=O)c2ccccc2O)c1	10	-0.5	-10	-3.8	-1	-0.3%
COc1cc2ccc(=O)oc2c(CC=C(C)C)c1OC	-10	0.4	5	-0.5	3	2.5%
CCc1noc(C)c1C(=O)NNC(=O)COc1ccccc1C	1	-0.2	-1	-1.7	4	3.1%
CCOc1ccc(Cn2ccnc2CCl)cc1[N+](=O)[O-]	-7	-0.4	-7	-0.9	5	-1.0%
COc1ccc(OC)c(NC(=O)C(=O)N/N=C(\C)CC(=O)Nc2ccc(Cl)cn2)c1	-13	-1.1	-7	-4.5	-3	-0.7%
CCOC(=O)c1cccc(NC(=O)CCc2nc3cccnc3n2-c2ccccc2)c1	17	2.4	.	.	.	8.0%
Cc1cccc(C(=O)N(CC(=O)Nc2sc(C)c(C)c2C(N)=O)C2CCCC2)c1	13	-0.2	-1	4.4	6	0.2%
Fc1ccc(Cn2c(SCc3ccc(F)c(F)c3)nnc2C(F)(F)F)cc1	63	4.1	-2	?	38	3.6%[38.3 µM]
COCCNC(C(=O)Nc1cc(Cl)cc(Cl)c1)c1ccccc1 (configuration not stated)	25	0.1	-9	-5.3	4	-0.4%
Cc1ccc(NC(=O)C(=O)NCc2ccco2)cc1	-7	0.3	.	.	.	5.0%
CCOC(=O)CSC1=NC(=O)/C(=C\c2ccc(Cl)cc2)S1	-11	16	0	-5.1	2	4.1%
COc1cccc(-c2nc(SCC(=O)NC3CCCC3)c(-c3ccc(F)cc3)[nH]2)c1	4	4.0	.	.	.	-1.9%
CCOc1ccc(CCNC(=O)c2cc3c(-c4ccc(OC)c(OC)c4)nn(C)c3s2)cc1OCC	0	0.6	.	.	.	4.0%
C#CCOCCOCCOCCNc1nc(N2CCN(C(=O)Cn3cc(CCCN=C(N)N)nn3)CC2)nc(N2CCN(C(=O)[C@H]([C@@H](C)CC)n3cc(CCC(=O)O)nn3)CC2)n1	18	0.1	-15	-1.9	-6	-0.1%
CCc1c(C)c(C#N)c2[nH]c3ccccc3n2c1=S	-4	0.8	1	-0.8	-5	?
CC(C)COC(=O)c1ccc(NC(=O)C2C3C=CC(C3)C2C(=O)O)cc1 (configuration not stated)	16	-0.9	-9	-1.8	6	0.8%
CCC(C)[C@H]1COCCS(=O)(=O)N1Cc1ccccc1 (some centres not stated)	-6	0.2	2	-0.9	19	1.4%
COc1ccc(C(=O)C2CC2c2ccc3c(c2)OCO3)cc1 (configuration not stated)	-11	1.0	-1	-1.4	4	-0.3%
CSc1nc2ccc(NC(=O)c3ccc(=O)[nH]c3)cc2s1	-2	0.3	-6	5.2	-14	-0.5%
CCC(NC(=O)COC(=O)C1CC2CCCC(C1)C2=O)c1ccc(Br)cc1 (configuration not stated)	3	0.8	-11	2.8	9	1.9%
O=C(/C=C/c1ccccc1)N/C(=C/c1ccccc1)C(=O)NCCO	3	-0.1	-7	-1.9	3	3.2%
CC1=C(C(=O)Nc2ccccc2)C(c2ccc(C(C)C)cc2)N2C(=O)CSC2=N1 (configuration not stated)	1	0.0	-5	1.0	-1	.

Quoted from the listing.
CCC(NC(=O)COC(=O)C1CC2CCCC(C1)C2=O)c1ccc(Br)cc1 (configuration not stated) in TRPML1 ag shows 0.8
CCc1c(C)c(C#N)c2[nH]c3ccccc3n2c1=S in D2 ag shows -0.8
CSc1nc2ccc(NC(=O)c3ccc(=O)[nH]c3)cc2s1 in D2 ag shows 5.2
